From PubChem BioAssay
CtBP-E1A inh – blocks the CtBP interaction with E1A | AlphaScreen GST-E1A/His-CtBP binding, 1536-well; stronger effect = lower value; control for the full effect not named in the record | activity change, % (concentration not given with the values) | 340,000 tested, 0.49% active | AID 651724; in the data active means activity change below about -65%; inconclusive means about -30% to -65%; inactive means above about -30%; note: % is set by controls: 0 for no effect and ±100 for the full control effect
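Steps: dispense buffer (Tris pH 8.0, NaCl 300 mM, TCEP 1 mM, BSA, Tween 20); add 5X protein mix (GST-E1A, His-CtBP, 125 nM each); pin 23 nL compound; 2 h at 37 °C, dark; add 5X beads (50 ug/mL); 1 h; read.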
D2 ag – activates the human D2 dopamine receptor; P14416; DiscoveRx PathHunter D2 beta-arrestin, luminescence, 90 min; 100% = 57 uM dopamine signal; activation, % (concentration not given with the values); 360,000 tested, 0.084% active; AID 624465; in the data active = activation above about 40%; inconclusive = about 15% to 40%; inactive = below about 15%; note: compound concentration not given in the record; the text of the record calls up to 30% inactive
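DiscoveRx PathHunter D2 beta-arrestin cells (2,100/well) attached overnight, then compound-stimulated 90 min at 37 C in HBSS/10 mM HEPES/0.1% Tween-20 buffer; beta-galactosidase complementation read by luminescence after 1 h at ambient temperature. Dopamine 57 uM final (EC100) as control.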
TRPML1 ag – agonists of human TRPML1 channel. Q9GZU1. AID 624414. activation, % (no concentration beside the values). 410,000 tested, 0.12% active. TRPML1-expressing cells, Ca2+ dye fluorescence, FDSS; host cell line not named in the record; reference of the full effect not given here; in the data active = activation above about 50%; inconclusive = about 30% to 50%; inactive = below about 30%; note: 0% is about no effect; the text of the record puts the active cut at 80%
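Calcium fluorescence on an FDSS kinetic reader gave the read-out. Tet-induced TRPML1-DL cells were plated overnight, dye-loaded (Ca8 with quencher, 45-90 min, room temperature, dark), then read 110 s after compound addition, and again 110 s after 4uM final 54-4 (EC80).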
PINK1 expr mod – modulators of PINK1 expression | Potency, µM (doses to about 76.6 µM), inactives show at the top dose activation (PINK1 increase), most hits filed as activators | 410,000 tested, 0.2% active | PINK1 immunofluorescence, high-content cytometry, 24 h | AID 624263; active = well fitted activation curve with a large enough effect; inconclusive = small, poorly fitted or top-dose-only effect; inactive = flat fitted curve, though single readings scatter; cell line not stated here;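 note: potency is the fitted concentration of half-maximal effect; % of control where 0% means no effect; nearly all actives have a fitted effect of over 65% in size; a mitochondrial uncoupler was the plate control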
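PINK1 protein level read as immunofluorescence by microplate cytometer in a fixed, stained stable cell line after 24 h exposure to five compound concentrations, with CCCP as control.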
Six1-Eya2 inh – inhibitors of human Six1/Eya2 interaction. Q15475+O00167. AlphaScreen GST-Six1/His-Eya2 binding, biochemical; stronger effect = lower value; control for the full effect not named in the record. activity change, % (concentration not given with the values). 360,000 tested, 0.56% active. AID 651725; in the data active = activity change below about -65%; inconclusive = about -30% to -65%; inactive = above about -30%; note: % is set by controls: 0 for no effect and ±100 for the full control effect
Target sequence (O00167 whole entry, looked up): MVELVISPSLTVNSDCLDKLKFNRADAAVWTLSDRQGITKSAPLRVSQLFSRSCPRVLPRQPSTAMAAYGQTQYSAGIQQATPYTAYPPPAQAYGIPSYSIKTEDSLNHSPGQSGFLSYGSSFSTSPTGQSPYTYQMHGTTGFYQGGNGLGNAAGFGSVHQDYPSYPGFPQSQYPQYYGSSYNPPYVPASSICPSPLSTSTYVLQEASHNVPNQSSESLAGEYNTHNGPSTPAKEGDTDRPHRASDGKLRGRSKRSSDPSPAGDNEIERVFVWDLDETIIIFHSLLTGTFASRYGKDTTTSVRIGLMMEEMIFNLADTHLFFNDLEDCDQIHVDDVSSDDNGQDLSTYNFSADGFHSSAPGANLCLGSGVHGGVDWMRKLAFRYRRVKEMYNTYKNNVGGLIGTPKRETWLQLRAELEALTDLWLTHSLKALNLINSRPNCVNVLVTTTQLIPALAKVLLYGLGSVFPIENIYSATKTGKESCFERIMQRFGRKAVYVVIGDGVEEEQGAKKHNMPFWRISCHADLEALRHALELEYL
Target sequence (Q15475 whole entry, looked up): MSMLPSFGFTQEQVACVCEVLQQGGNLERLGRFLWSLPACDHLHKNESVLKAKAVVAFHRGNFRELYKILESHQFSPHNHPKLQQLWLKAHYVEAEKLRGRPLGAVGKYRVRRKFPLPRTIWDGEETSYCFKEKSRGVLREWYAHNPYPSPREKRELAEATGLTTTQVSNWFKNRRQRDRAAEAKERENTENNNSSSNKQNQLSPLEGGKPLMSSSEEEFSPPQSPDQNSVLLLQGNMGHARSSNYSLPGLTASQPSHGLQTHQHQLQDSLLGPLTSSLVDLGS
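AlphaScreen with GST-Six1 and His-Eya2 (5X mix: 250 nM and 500 nM), glutathione donor and nickel acceptor beads; buffer 50 mM Tris pH 8.0, 300 mM NaCl, 1 mM TCEP; 1 h at 37 C in the dark.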
TRPML1 blocker – blocks the human TRPML1 channel; Q9GZU1; AID 624415; activity change, negative = inhibition, % (test concentration not listed); TRPML1-inducible cells, Ca2+ dye fluorescence, FDSS; stronger effect = lower value; inhibition of EC80 agonist-evoked calcium signal; 390,000 tested, 0.02% active; in the data active means activity change below about -50%; inconclusive means about -30% to -50%; inactive means above about -30%;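 note: stimulus is agonist 54-4 at its EC80 concentration; % is set by controls: 0 for no effect and ±100 for the full control effect; compound concentration not given in the record; the text of the record puts the active cut at -80%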
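Tet-induced TRPML1-DL cells loaded with Ca8 no-wash calcium dye were read kinetically on FDSS. Compound addition was followed by EC80 agonist 54-4 (4 uM final); inhibition was read over 110 s.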
Starred values were filed as active, the others as inactive; & = joins results of further samples; [ ] = remark or other dose.

How did CCCCC(=O)Oc1c(S(=O)(=O)c2ccccc2)c(C)nn1C(C)(C)C do in these assays?
CtBP-E1A inh: -13.5; D2 ag: -1.2; TRPML1 ag: 2.8; PINK1 expr mod: -2.5%; Six1-Eya2 inh: 17.5; TRPML1 blocker: -15.5

What do the screens show for `Cc1cc(NC(=O)c2ccc(Cl)cc2)n(CCC#N)n1`?
CtBP-E1A inh: 1.8; D2 ag: -2.6; TRPML1 ag: 0.3; PINK1 expr mod: 0.2%; Six1-Eya2 inh: 8.6; TRPML1 blocker: 7.0

Results for NC1=NC(=O)/C(=C\c2ccco2)S1 ?
CtBP-E1A inh: -22.4; D2 ag: 6.3; TRPML1 ag: 1.1; PINK1 expr mod: 1.0%; Six1-Eya2 inh: -28.7; TRPML1 blocker: -8.1

How did COC(=O)[C@H](Cc1ccccc1)NC(=O)N1CCCCC1 do in these assays?
CtBP-E1A inh: 7.6; D2 ag: 2.8; TRPML1 ag: -1.3; PINK1 expr mod: 0.3%; Six1-Eya2 inh: -1.9; TRPML1 blocker: 2.2

What do the screens show for `CCc1ccc(C2C3=C(CC(C)(C)CC3=O)OC3=C2C(=O)CC(C)(C)C3)cc1`?
CtBP-E1A inh: 9.1; D2 ag: -5.0; TRPML1 ag: 0.1; PINK1 expr mod: 8.3%; Six1-Eya2 inh: -2.1; TRPML1 blocker: 9.1

What do the screens show for `O=C(CCNC(=O)c1ccccc1Cl)OCC(=O)c1ccccc1`?
CtBP-E1A inh: -4.6; D2 ag: -8.7; TRPML1 ag: -0.1; PINK1 expr mod: 9.6%; Six1-Eya2 inh: 2.6; TRPML1 blocker: 6.2

How did COc1cc(OC)cc(C(=O)NCC(=O)N2CCN(S(=O)(=O)c3ccccc3F)CC2)c1 do in these assays?
CtBP-E1A inh: 5.5; D2 ag: 4.5; TRPML1 ag: -0.5; PINK1 expr mod: 4.0%; Six1-Eya2 inh: 0.8; TRPML1 blocker: 17.5

Results for CCn1ncc(CNC(=O)C2(C)CC2(Br)Br)c1C (stereo not drawn) ?
CtBP-E1A inh: -10.0; D2 ag: -4.7; TRPML1 ag: -0.4; PINK1 expr mod: -1.1%; Six1-Eya2 inh: 0.7; TRPML1 blocker: 12.7

Results for COc1cc(CN(C)Cc2cc(=O)oc3cc(C)c(Cl)cc23)ccc1OC(F)F ?
CtBP-E1A inh: 13.7; D2 ag: -4.3; TRPML1 ag: 1.6; PINK1 expr mod: -0.6%; Six1-Eya2 inh: 5.4; TRPML1 blocker: 1.1

What do the screens show for `Cc1cc(NC(=O)CSc2ccccc2)no1`?
CtBP-E1A inh: -9.9; D2 ag: -2.2; TRPML1 ag: -0.3; PINK1 expr mod: -1.4%; Six1-Eya2 inh: -12.9; TRPML1 blocker: -4.9

What do the screens show for `CCOc1ccc(-n2c(C)c(C(C)=O)c(C(C)=O)c2C)cc1`?
CtBP-E1A inh: 1.0; D2 ag: 1.2; TRPML1 ag: 0.7; PINK1 expr mod: -0.3%; Six1-Eya2 inh: -8.9; TRPML1 blocker: -1.2

Results for COc1ccc(N2CCN(C(=O)C3(S(=O)(=O)c4ccc(C)cc4)CC3)CC2)cc1 ?
CtBP-E1A inh: -3.2; D2 ag: -1.5; TRPML1 ag: 1.0; PINK1 expr mod: 2.5%; Six1-Eya2 inh: -10.3; TRPML1 blocker: 6.7

Results for O=C(NC1CCCCC1)N1CCN(c2ncccn2)CC1 ?
CtBP-E1A inh: -3.4; D2 ag: -0.6; TRPML1 ag: 1.9; PINK1 expr mod: 3.7%[38.3 µM]; Six1-Eya2 inh: -0.4; TRPML1 blocker: 14.1

Results for O=C(CSc1ccccn1)Nc1ccc(N2CCOCC2)cc1 ?
CtBP-E1A inh: -0.5; D2 ag: 5.1; TRPML1 ag: -0.3; PINK1 expr mod: 0.8%; Six1-Eya2 inh: -2.0; TRPML1 blocker: 3.2

How did COc1ccc(OC)c(NC(=O)CSc2nc(-c3ccccc3C)nc3cc(=O)[nH]n23)c1 do in these assays?
TRPML1 ag: 0.8; PINK1 expr mod: -0.3%; TRPML1 blocker: 10.6

How did O=[N+]([O-])c1ccc(-c2nc(NCc3ccccc3)c3ccccc3n2)cc1 do in these assays?
CtBP-E1A inh: -9.9; D2 ag: -3.1; TRPML1 ag: 2.3; PINK1 expr mod: 1.7%; Six1-Eya2 inh: 3.2; TRPML1 blocker: 10.9

Results for Cc1c(CCNS(=O)(=O)c2ccccc2)sc2nc(-c3ccc(Cl)cc3)nn12 ?
TRPML1 ag: 4.8; PINK1 expr mod: 2.5%; TRPML1 blocker: -24.0

Results for CC(C)C[C@H](NC(=O)Nc1ccc2c(c1)OCCO2)C(=O)O ?
CtBP-E1A inh: -0.4; D2 ag: -1.6; TRPML1 ag: -0.2; PINK1 expr mod: 1.4%; Six1-Eya2 inh: 3.0; TRPML1 blocker: 34.7

What do the screens show for `COc1cccc(-c2nc(CS(=O)(=O)CC(=O)Nc3ccccc3Br)c(C)o2)c1`?
CtBP-E1A inh: -1.5; D2 ag: 1.5; TRPML1 ag: 1.4; PINK1 expr mod: 9.1%; Six1-Eya2 inh: -15.4; TRPML1 blocker: 2.6

What do the screens show for `COc1ccc(/C=C2\C(=O)N(Cc3ccc(F)cc3)CC(=O)N2Cc2ccccc2)cc1`?
CtBP-E1A inh: -11.1; D2 ag: -2.0; TRPML1 ag: -1.2; PINK1 expr mod: -2.2%; Six1-Eya2 inh: -15.9; TRPML1 blocker: 21.0

How did O=C(N/N=C/c1ccccc1F)c1cccc2ccccc12 do in these assays?
CtBP-E1A inh: -0.4; D2 ag: 5.2; TRPML1 ag: 1.7; PINK1 expr mod: 5.4%; Six1-Eya2 inh: 4.6; TRPML1 blocker: -9.1

How did CCOc1ccc(-c2cn3ccccc3n2)cc1 do in these assays?
CtBP-E1A inh: -8.3; D2 ag: -3.2; TRPML1 ag: 0.7; PINK1 expr mod: -1.3%; Six1-Eya2 inh: -6.9; TRPML1 blocker: -13.6

Results for COc1cc2c(cc1OC)C(C)N(C(=S)NC(=O)c1ccccc1)CC2 (stereo not drawn) ?
CtBP-E1A inh: 6.2; D2 ag: -0.9; TRPML1 ag: 1.9; PINK1 expr mod: 3.1%; Six1-Eya2 inh: -0.9; TRPML1 blocker: -4.4

How did C=C1C(=O)OCC2C(C(=O)O)=CC3C(C)C(C)=CC123 (stereo not drawn) do in these assays?
CtBP-E1A inh: 2.7; D2 ag: -3.5; TRPML1 ag: -0.6; PINK1 expr mod: -2.1%; Six1-Eya2 inh: 0.7; TRPML1 blocker: 2.8

How did CCOc1ccc(N2C(=O)NC(Cc3c[nH]c4ccccc34)C2=O)cc1 (stereo not drawn) do in these assays?
CtBP-E1A inh: -4.0; D2 ag: 2.9; TRPML1 ag: 1.2; PINK1 expr mod: 2.6%; Six1-Eya2 inh: -6.6; TRPML1 blocker: -9.6

Results for CCCCc1ccc(NC(=O)CSc2nc(=O)n(CCN(CC)CC)c3c2CCCC3)cc1 ?
CtBP-E1A inh: 7.8; D2 ag: -5.8; TRPML1 ag: 0.5; PINK1 expr mod: -8.8%; Six1-Eya2 inh: 6.1; TRPML1 blocker: -7.2

Results for O=C(Cc1ncc(C(F)(F)F)cc1Cl)NCc1ccco1 ?
CtBP-E1A inh: -1.4; D2 ag: -1.9; TRPML1 ag: -0.3; PINK1 expr mod: -0.4%; Six1-Eya2 inh: 5.4; TRPML1 blocker: -14.6

What do the screens show for `COc1ccc(/C=C2\Oc3cc(OCC(=O)N4CC(O)C[C@H]4C(=O)O)ccc3C2=O)cc1OC` (stereo partly drawn)?
CtBP-E1A inh: 3.2; D2 ag: -6.1; PINK1 expr mod: -0.2%; Six1-Eya2 inh: -2.9

Results for CC(=O)OCC1(O)CC23CCC4c5ccoc5CCC4(C)C2CCC1C3 (stereo not drawn) ?
CtBP-E1A inh: -2.3; D2 ag: 11.7; TRPML1 ag: -0.6; PINK1 expr mod: 0.8%; Six1-Eya2 inh: -0.4; TRPML1 blocker: 6.1

Results for COc1ccc(CC(=O)O/N=C(\N)c2ccc(Br)cc2)cc1OC ?
CtBP-E1A inh: 27.3; D2 ag: 10.4; TRPML1 ag: 3.0; PINK1 expr mod: 4.7%; Six1-Eya2 inh: 9.3; TRPML1 blocker: -4.1

How did Cc1ccc(CSc2nc3ccsc3c(=O)n2Cc2ccccn2)cc1 do in these assays?
CtBP-E1A inh: -2.9; D2 ag: 0.5; TRPML1 ag: 1.7; PINK1 expr mod: -0.3%; Six1-Eya2 inh: -0.8; TRPML1 blocker: 23.9

How did CCN(CC)CCCN=Cc1c(O)n(-c2ccccc2C)c(=O)c2ccccc12 do in these assays?
CtBP-E1A inh: -15.4; D2 ag: -4.2; TRPML1 ag: 0.5; PINK1 expr mod: 0.6%; Six1-Eya2 inh: -4.4; TRPML1 blocker: -5.7

Results for COc1ccc(C(=O)Cc2nnc(C)s2)c(OC)c1 ?
CtBP-E1A inh: 3.6; D2 ag: -6.6; TRPML1 ag: 0.2; PINK1 expr mod: 6.0%; Six1-Eya2 inh: 2.4; TRPML1 blocker: -3.9

What do the screens show for `CCCCn1c(N)c(N(CC)C(=O)CCNC(=O)c2ccc(Cl)cc2)c(=O)[nH]c1=O`?
CtBP-E1A inh: -7.9; D2 ag: -2.1; TRPML1 ag: 1.0; PINK1 expr mod: -1.0%; Six1-Eya2 inh: -4.9; TRPML1 blocker: 12.9

Results for Cc1cc(C)c(S(=O)(=O)c2ccccc2)c(=O)[nH]1 ?
CtBP-E1A inh: 6.1; D2 ag: 5.7; TRPML1 ag: 0.1; PINK1 expr mod: 11.7%; Six1-Eya2 inh: 2.9; TRPML1 blocker: 18.2

How did COc1ccc([N+](=O)[O-])cc1NC(=O)Cn1ccsc1=N do in these assays?
CtBP-E1A inh: 5.2; D2 ag: 4.0; TRPML1 ag: 1.5; PINK1 expr mod: -0.3%; Six1-Eya2 inh: -0.3; TRPML1 blocker: -2.3

Results for CCOc1cc(CNS(=O)(=O)c2ccc3c(c2)CC(=O)N3C)cc(OCC)c1OCC ?
CtBP-E1A inh: 0.4; D2 ag: -1.5; TRPML1 ag: 1.0&-0.6; PINK1 expr mod: -1.0%&6.9%; Six1-Eya2 inh: -0.7; TRPML1 blocker: 0.8&4.8

Gathered by group, the entries above containing bromine (3)
Results for CCn1ncc(CNC(=O)C2(C)CC2(Br)Br)c1C (stereo not drawn) ?
CtBP-E1A inh: -10.0; D2 ag: -4.7; TRPML1 ag: -0.4; PINK1 expr mod: -1.1%; Six1-Eya2 inh: 0.7; TRPML1 blocker: 12.7

What do the screens show for `COc1cccc(-c2nc(CS(=O)(=O)CC(=O)Nc3ccccc3Br)c(C)o2)c1`?
CtBP-E1A inh: -1.5; D2 ag: 1.5; TRPML1 ag: 1.4; PINK1 expr mod: 9.1%; Six1-Eya2 inh: -15.4; TRPML1 blocker: 2.6

Results for COc1ccc(CC(=O)O/N=C(\N)c2ccc(Br)cc2)cc1OC ?
CtBP-E1A inh: 27.3; D2 ag: 10.4; TRPML1 ag: 3.0; PINK1 expr mod: 4.7%; Six1-Eya2 inh: 9.3; TRPML1 blocker: -4.1
